# VDR inhibitor: blocks the human vitamin D receptor; VDR-SRC2-3 peptide fluorescence polarization, 2 h; P11473; AID 504847; actives 0.93% (n = 400,000); Potency, µM, inactives show max response, negative = inhibition, hits mostly inhibitors; active = well fitted inhibition curve with a large enough effect; inconclusive = small, poorly fitted or top-dose-only effect, or another doubt; inactive = no such curve, though single readings can be large or run the other way; also: series mostly up to about 120 µM
# Target sequence (P11473 whole entry, looked up): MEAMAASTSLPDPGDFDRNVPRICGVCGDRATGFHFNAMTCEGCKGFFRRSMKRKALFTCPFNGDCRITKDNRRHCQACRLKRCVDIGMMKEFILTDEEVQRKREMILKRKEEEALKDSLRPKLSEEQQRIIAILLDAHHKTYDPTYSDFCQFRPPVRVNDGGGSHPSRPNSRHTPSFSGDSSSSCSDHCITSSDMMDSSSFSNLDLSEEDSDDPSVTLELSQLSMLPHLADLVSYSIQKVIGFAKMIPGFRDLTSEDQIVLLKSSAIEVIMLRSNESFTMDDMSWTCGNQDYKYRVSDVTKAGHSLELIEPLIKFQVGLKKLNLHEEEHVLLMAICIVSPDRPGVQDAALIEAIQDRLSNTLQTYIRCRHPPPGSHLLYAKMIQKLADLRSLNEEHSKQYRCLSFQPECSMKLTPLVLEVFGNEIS
#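 The screen uses fluorescence polarization to detect compounds that interfere with recruitment of the SRC2-3 coactivator peptide to VDR; plates are read after 2 h at room temperature.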
# An asterisk follows results filed as active; ? = inconclusive; & = joins results of further samples. % is scaled to controls: 0 for no effect and ±100 for the full control effect; potency is read from the fitted curve at half-maximal effect. The list is partial, so the mix of outcomes need not match the whole.
VDR inhibitor	Structure
?	COc1ccccc1-c1cncnc1NCc1cnc(C)cn1
7%	CCOc1ccccc1OCC(=O)Nc1ccc(S(=O)(=O)Nc2ncccn2)cc1
-6%	COc1cc(CNn2c(C)n[nH]c2=S)cc(Cl)c1OCc1ccccc1
8%	C=CCN(C(=O)c1ccc2c(c1)nnn2C)c1ccccc1
-7%	COc1ccccc1-c1nnc(SCC(=O)c2ccc(Cl)cc2)n1-c1ccccc1
-3%	CNC(=S)N1CCC(NC(=O)C(Cc2ccccc2)NC(C)=O)CC1 (stereo unspecified)
-7%	O=C(CC(=O)NCc1ccccc1)NCc1ccccc1
-23%	C#CCn1c(=NC(=O)CN2C(=O)CCC2=O)sc2cccc(C)c21
9%	Cc1cc(C)cc(-n2nnc(C(=O)NCc3ccc4c(c3)OCO4)c2N)c1
-19%	O=C(NC(=S)Nc1cccc(Cl)c1N1CCCCC1)c1ccco1
15%	CCc1nc2ccc(C(=O)N(CC)CC(=O)Nc3c(F)cccc3F)cc2nc1CC
2%	CCOC(=O)C1CCN(S(=O)(=O)c2ccc(CNC(=O)c3ccccc3)s2)CC1
-6%	O=C(C1=C(O)C(=O)N(CC2CCCO2)C1c1ccc(Cl)cc1)c1ccco1 (stereo unspecified)
-18%	COC(=O)c1c(NC(=O)CCCOc2ccc(C)cc2)sc2c1CCCC2
1%	O=C(NC(CO)(CO)CO)c1coc(=O)c(Br)c1
-8%	CC(NC(=O)COC(=O)c1ccco1)C12CC3CC(CC(C3)C1)C2 (stereo unspecified)
4%	NC(=O)NC(CC(=O)NCc1ccc2c(c1)OCO2)c1ccccc1Cl (stereo unspecified)
1%	O=C(N/N=C/c1cccnc1)C12CC3CC(CC(C3)C1)C2
1%	Cc1ccc(NC(=O)CSc2nc(CSc3ccc(C)cc3)cc(=O)[nH]2)cc1
1%	COc1ccc(OCC(=O)Nc2nnc(-c3ccco3)s2)cc1
-28%	Cc1ccc(NC(=S)NC(=O)c2ccccc2)cc1NC(=S)NC(=O)c1ccccc1
6%	Cc1cc(Br)cc2c(C(=O)NCC3CCCO3)cc(-c3cccs3)nc12 (stereo unspecified)
-1%	COc1ccc(C(=O)NNC(=O)CSc2ccccc2)cc1
8%	Cc1ccc(CSc2nc3ncccc3[nH]2)cc1
-3%	Cc1ccc(C)c(NC(=O)Cn2nnc(C(=O)NCc3ccccc3Cl)c2N)c1
-8%	O=C(CCn1c(=O)oc2ccc(Cl)cc21)NCCCN1CCOCC1
-12%	CN(C)S(=O)(=O)c1ccc(C(=O)NN2C(=O)NC3(CCCCC3)C2=O)cc1
-11%&-11%&-1%	C=C[C@]1(C)C[C@@H](OC(=O)CSCCN(CC)CC)[C@]2(C)C(C)CC[C@]3(CCC(=O)[C@H]32)[C@@H](C)[C@@H]1O (stereo partly specified)
-18%	CC(C)CN(CC(C)C)C(=S)NC1CCCCC1
-4%	CCCCc1nnc(NC(=O)CC(=O)Nc2ccccc2C(=O)O)s1
3%	Cc1cccc(NC(=O)NCc2ccc3c(c2)OCO3)c1C
-20%	CCCCCCCCCCOC(=O)Cn1c(COc2ccccc2)[n+](C)c2ccccc21
-13%	Cc1cc(C)n2ncc(/C(N)=N/OC(=O)Nc3ccc(Cl)cc3)c2n1
7%	Cc1cccc(NC(=O)Nc2cccc(F)c2)n1
15%	CC(C)(C)OC(=O)CNC(=O)c1[nH]cnc1C(=O)Nc1ccc(CNC(=O)OC(C)(C)C)cc1
8%	CCN(CC)S(=O)(=O)c1cc(NC(=O)Cc2n[nH]c(=O)c3ccccc23)ccc1C
-15%	Cc1cc(C)c2c(N)c(C(=O)N/N=C/c3cccs3)sc2n1
9%	COc1ccc(-c2nc3cnc(N4CCOCC4)nc3n(C3CC3)c2=O)cc1
-9%&-1%	O=c1c2ccccc2ncn1-c1ccc(Cl)cc1
-13%	COCCn1cc(C(=O)N2CCN(C)CC2)c2c3ccccc3n(C)c2c1=O
-1%	CCCCCOC(=O)C1=C(C)NC(=O)NC1c1ccc2c(c1)OCO2 (stereo unspecified)
4%	CC(C)(C)NC(=O)/C(=C\c1ccccc1F)NC(=O)c1ccc([N+](=O)[O-])cc1
0%	O=S(=O)(c1ccc(F)cc1)N1CCN(CC(O)COCc2cccs2)CC1 (stereo unspecified)
-18%	CC1(C)CC(=O)C2=C(C1)OC(N)=C(C#N)C21C(=O)N2CCCc3cccc1c32 (stereo unspecified)
-4%	O=C(NC(=S)Nc1ccc2c(c1)OCCO2)c1ccc(F)cc1Cl
-13%	Cc1cc(-c2cn3ccccc3n2)c(C)n1-c1ccccc1
-5%	CC(C)c1ccc(-c2c(C#N)c(N)nc3c2CCCCC3)cc1
13%	O=C(Nc1sc2c(c1C(=O)NCc1cccnc1)CCCC2)c1cc(=O)c2ccccc2o1
5%	O=C(CSc1nnc(-c2ccncc2)n1CCc1ccccc1)NCc1ccccc1
-12%	COc1ccc(NC(C)=O)cc1NC(=O)c1cccc(S(=O)(=O)N2CCN(Cc3ccccc3)CC2)c1
2%	COc1ccc(-c2nc(CNS(=O)(=O)c3ccc(C)cc3)cs2)cc1
-11%	CC(=O)N1c2c(cc(Br)cc2S(=O)(=O)NCc2cccnc2)CC1C (stereo unspecified)
-13%	O=C(Nc1ccc(N2CCN(Cc3ccccc3F)CC2)cc1)c1ccccc1[N+](=O)[O-]
-7%	CCC(c1nnnn1CCc1ccccc1)N(Cc1ccco1)Cc1cc2cc(C)cc(C)c2[nH]c1=O (stereo unspecified)
-15%	CSc1cccc(NC(=O)Nc2ccccc2C(N)=O)c1
7%	CCCNC(=O)CN1CCN(c2ccc(NC(=O)c3ccc(OC)cc3)cc2C(=O)O)CC1
40µM*	CC(C)c1ccc(C2CC(=O)N3CN(Cc4ccco4)CSC3=C2C#N)cc1 (stereo unspecified)
-12%	O=C(O)c1nc(NCCc2ccccc2)ncc1Cl
-5%	CCn1c(=O)cc(OCC(=O)Nc2cccnc2)c2ccccc21
-4%&-7%	CC1(C)CCC(NC(=O)[C@@H](N)CCC(=O)O)CC1

# Continuation.
VDR inhibitor	Structure
22%	COc1cccc(COc2ccc3ccc(=O)oc3c2)c1
-6%	O=C(c1ccccc1)c1cc2c(cc1[N+](=O)[O-])OCCO2
-1%	COc1ccc(-c2nnc(SCC(=O)N3CCCC(C)C3)o2)c(OC)c1 (stereo unspecified)
1%	N#C/C(=C\c1ccc(Br)s1)C(=O)N1CCN(c2ccccc2)CC1
13%	Cc1cccc2sc(N(Cc3cccnc3)C(=O)CCc3ccccc3)nc12
-12%	CCOC(=O)C1CCN(S(=O)(=O)c2ccc3c(c2)CC(=O)N3C)CC1
-10%	C=C1CCC2[C@](C)(CO)[C@H](O)CC[C@@]2(C)[C@@H]1/C=C/C1=CCOC1=O (stereo partly specified)
-25%	CC(C)NC(=O)Cn1c(=O)n(CC(=O)N2CCCCC2)c(=O)c2sccc21
-11%	COc1cc2c(cc1OC)C(c1ccc(-c3ccc(Cl)cc3Cl)o1)=NCC2
12%	CC(c1ccccc1)N1C(=O)C2C3CCC(C3)C2C1=O (stereo unspecified)
9%	COc1ccc(N2CCN(CCCNC(=O)Cn3c(-c4cccs4)cc4ccccc43)CC2)cc1
-8%	O=C(CC(NCc1cccnc1)C(=O)O)Nc1ccc(O)cc1 (stereo unspecified)
-5%	CN(C)c1ccnc2sc3c(NCC(O)CO)ncnc3c12 (stereo unspecified)
11%	Cc1ccc(CNC(=O)c2ccc(CSc3nc4ccncc4n3Cc3ccc(C)cc3)cc2)cc1
?	CN(Cc1ccc(C(C)(C)C)cc1)C(=O)c1ccc2c(c1)OCO2
-1%	NS(=O)(=O)c1ccc(Sc2ccc3c(c2)CCC3)nc1
-11%	Cc1ccc(CN2CCSCC2)c(C)c1
?	O=C(NN1C(=O)/C(=C/c2cccs2)SC1=S)c1ccncc1
11%	Cc1cc(O)ccc1NC(=O)CCN1C(=O)c2ccc([N+](=O)[O-])cc2C1=O
3%	CC(C)C[C@H](NC(=O)NC1CCCc2ccccc21)C(=O)O (stereo partly specified)
8%	CC(=O)N1CCc2c(sc(NC(=O)C3CCCN3S(=O)(=O)c3cccs3)c2C#N)C1 (stereo unspecified)
-4%	COc1ccc(-c2csc(NC(=O)c3ccc(OCC(=O)N4CCOCC4)c(OC)c3)n2)cc1OC
13%	CCC(=O)Nc1cccc(Oc2nc(C)cc(C)c2C#N)c1
-1%&4%	CCOc1ccc(-n2c(SCC(=O)Nc3cc(C)on3)nc3c([nH]c4ccccc43)c2=O)cc1
2%	O=C1/C(=C\c2ccncc2)SC(=S)N1C1CCCCC1
3%	CC(C)c1ccc(CNc2cc(N3CCCC3)ccc2[N+](=O)[O-])cc1
6%	COc1ccc([N+](=O)[O-])cc1NC(=O)C(C)N1CCN(C(=O)c2ccco2)CC1 (stereo unspecified)
?	CCCn1c(N)c(C(=S)NC(=O)C2CC2)c(=O)n(C)c1=O
-21%	Cn1c(Cn2c(=O)sc3ccccc32)nnc1SCC(=O)Nc1ccccc1
2%	COc1ccc(N2CC(C)Cn3c2nc2c3c(=O)[nH]c(=O)n2C)cc1 (stereo unspecified)
0%	O=C(NC1CCc2ccccc21)c1cc(COc2ccc(F)cc2F)on1 (stereo unspecified)
-6%	C=COCCNC(=O)C(=O)NC(C)C
-10%	O=C(Cc1cccc(F)c1)N1CCOCC1
4µM*	O=C1C(c2ccccc2)=[N+]([O-])c2ccccc21
-4%	COc1cc(/C=C(/C#N)C(=O)NC(C)c2ccccc2)cc(OC)c1O (stereo unspecified)
-11%	Cc1nc(C(F)(F)F)ccc1C(=O)NN1CCOCC1
6%	CCN(CC)C(=S)SC1CCCCN(C(=O)c2ccccc2)C1=O (stereo unspecified)
4%	Cc1ccc(NS(=O)(=O)c2cc(C(=O)NCCCN(C)C)ccc2Cl)cc1Cl
21%	CNC(=S)N1N=C(c2ccc(Br)cc2)CC1c1ccc(Br)cc1 (stereo unspecified)
-3%	CCN(CC)S(=O)(=O)c1ccc(-c2nnc(SCC(C)=O)o2)cc1
?	COc1ccc(NCC(=O)n2c(C)c(C)c3ccccc32)cc1
-13%	CCCn1c(N)c(N2CCCCC2)c(=O)n(CC(=O)Nc2ccccc2C(F)(F)F)c1=O
-3%	Cc1ccc(C(CC(=O)O)Nc2nc(N3CCCCC3)nc(N3CCCCC3)n2)cc1 (stereo unspecified)
-1%	O=[N+]([O-])c1ccccc1CN1CCN(S(=O)(=O)c2ccccc2)CC1
-15%	CCOc1ccc(C(=O)CSc2nnc3ccccn23)cc1
-12%	Cc1c(CCC(=O)N2CCC[C@H]2C(=O)O)c(=O)oc2c(C)c3oc4c(c3cc12)CCCC4
-7%	COc1ccccc1NC(=O)c1oc2ccccc2c1NC(=O)C1CCCCC1
-14%	O=C(c1cc(-c2cccc(O)c2)on1)N1CCOCC1
-1%	CCSc1ncc(Cl)c(C(=O)N(Cc2ccc(N(C)C)cc2)C2CCS(=O)(=O)C2)n1 (stereo unspecified)
-20%	O=C(COc1ccccc1-c1ccccc1)NN=C1CCCC1
7.1µM*	O=C1C(Cl)=C(Oc2ccccc2)C(=O)c2ccccc21
4%	CC1CN(C(=O)c2ccc(CNS(=O)(=O)c3cccc(Cl)c3)cc2)CC(C)O1 (stereo unspecified)
17%	Cc1ccc(-n2cnc(N)c2C(=O)c2cccc([N+](=O)[O-])c2)cc1
?	CC1Oc2ccccc2C=C1/C=N/Nc1ccc(C(=O)O)cc1 (stereo unspecified)
-27%	COc1ccc(C(=O)OCC(=O)NCC2CCCO2)c(F)c1 (stereo unspecified)
4%	O=C(CCc1ccccc1)NC(=S)Nc1cccc(C(=O)O)c1
-23%	COc1cc(C)c(NC(=S)NCCCN2CCOCC2)cc1OC
11%	Cc1c(S(=O)(=O)N2CCCCC2)c(=O)n(C)c(=O)n1C
14%	CCC(C)NC(=O)c1sc2nc3n(c(=O)c2c1C)CCC3 (stereo unspecified)
-12%	COc1ccc(NC(=O)c2ccco2)cc1NC(=O)COc1cc(C)ccc1C(C)C

# (listing goes on)
VDR inhibitor	Structure
3%	Cc1noc(C)c1S(=O)(=O)Nc1c(C)n(C)n(-c2ccccc2)c1=O
-13%	CN1C(C(=O)NCc2ccco2)=CC(c2ccc(F)cc2)=NS1(=O)=O
-10%	O=C(N/N=C1/CCS(=O)(=O)c2ccc(F)cc21)c1ccccn1
6%	COc1ccc(NC(=O)COC(=O)CNC(=O)c2cccs2)cc1Cl
-8%	CCNC(=O)COC(=O)c1ccc(NS(=O)(=O)c2ccc3c(c2)OCCO3)cc1

# Molecules listed so far containing a Cl atom, in the order listed:
VDR inhibitor	Structure
-6%	COc1cc(CNn2c(C)n[nH]c2=S)cc(Cl)c1OCc1ccccc1
-7%	COc1ccccc1-c1nnc(SCC(=O)c2ccc(Cl)cc2)n1-c1ccccc1
-19%	O=C(NC(=S)Nc1cccc(Cl)c1N1CCCCC1)c1ccco1
-6%	O=C(C1=C(O)C(=O)N(CC2CCCO2)C1c1ccc(Cl)cc1)c1ccco1 (stereo unspecified)
4%	NC(=O)NC(CC(=O)NCc1ccc2c(c1)OCO2)c1ccccc1Cl (stereo unspecified)
-3%	Cc1ccc(C)c(NC(=O)Cn2nnc(C(=O)NCc3ccccc3Cl)c2N)c1
-8%	O=C(CCn1c(=O)oc2ccc(Cl)cc21)NCCCN1CCOCC1
-13%	Cc1cc(C)n2ncc(/C(N)=N/OC(=O)Nc3ccc(Cl)cc3)c2n1
-9%&-1%	O=c1c2ccccc2ncn1-c1ccc(Cl)cc1
-4%	O=C(NC(=S)Nc1ccc2c(c1)OCCO2)c1ccc(F)cc1Cl
-12%	O=C(O)c1nc(NCCc2ccccc2)ncc1Cl
-11%	COc1cc2c(cc1OC)C(c1ccc(-c3ccc(Cl)cc3Cl)o1)=NCC2
4%	Cc1ccc(NS(=O)(=O)c2cc(C(=O)NCCCN(C)C)ccc2Cl)cc1Cl
-1%	CCSc1ncc(Cl)c(C(=O)N(Cc2ccc(N(C)C)cc2)C2CCS(=O)(=O)C2)n1 (stereo unspecified)
7.1µM*	O=C1C(Cl)=C(Oc2ccccc2)C(=O)c2ccccc21
4%	CC1CN(C(=O)c2ccc(CNS(=O)(=O)c3cccc(Cl)c3)cc2)CC(C)O1 (stereo unspecified)
6%	COc1ccc(NC(=O)COC(=O)CNC(=O)c2cccs2)cc1Cl

# High-throughput results from PubChem BioAssay.
